# Compound activity (PubChem)
# RN4220 kill: growth inhibition of S. aureus RN4220, primary screen, OD600 | inhibition, % (no concentration beside the values) | AID 1259311, 2017 | 330,000 compounds, 0.33% hits | 16 h;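 active = z-score of -3 or lower and OD600 up to 0.18 on both plates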;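 note: plate controls were untreated cells for no effect and reference antibiotic for full effect; stock transfer was 100 nL into about 80 µL; one replicate is shown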
# PrP 5UTR inh: inhibition of PrP 5' UTR reporter expression; inhibition, % (test concentration not listed); 340,000 compounds, 0.35% hits; cell-based PrP 5' UTR mRNA reporter, plate reader;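 active = every replicate at 50% or more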;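 note: 0 = median of the neutral control wells; tested in H4 reporter cells; numbers are from one replicate; inactives centre near -14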
# ugtP null kill: growth inhibition of ugtP-null S. aureus, primary screen, RN4220 ugtP deletion, OD600; 330,000 compounds, 0.54% hits; growth inhibition, % (no concentration beside the values); AID 1259309, 2017; 16 h; some inactives read as strong as hits;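 active = z-score under -3 and OD600 up to 0.15 on both plates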;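 note: plate controls were untreated wells for no effect and antibiotic for full effect; wells of about 80 µL received 100 nL stock; the first replicate is given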
# BJeLR lethal: MLPCN primary cell-based screen for lethality selective to Ras in HRASV12 cells. BJeLR (HRASV12) viability, CellTiter-Glo ATP luminescence, 48 h; reference of the scale not given here. inhibition, % (test concentration not listed). 300,000 compounds, 0.17% hits;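 active = replicate mean above 50%; inconclusive = above 50% but judged a plate artefact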;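 note: 50 nL library stock added to about 25 µL; numbers are from one replicate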
# Bead autofluor: counter-screen for toxin protease inhibitors: compound fluorescence; fluorescence intensity (concentration not given with the values); compound autofluorescence counterscreen, microsphere flow cytometry; hits give high values; 360,000 compounds, 3.1% hits;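 active = at least 3 SD above the mean of all compounds, about 16000 in these data; inconclusive = too few beads counted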;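 note: 100 nL of 1 mM stock went into each well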
# Mtb hypoxia rep: PubChem AID 1159583. M. tuberculosis hypoxia-regulated fluorescent reporter, fluorescence. 300,000 compounds, 0.1% hits. fluorescence inhibition, % (test concentration not listed);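 active = 35 to 45% if threefold the growth effect, above 45% if 1.5-fold the growth effect; inactive = the rest, general growth blockers included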;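 note: wells of about 50 µL received 100 nL stock; 0% = vehicle wells and 100% = reference inhibitor wells; whole bacteria with a GFP reporter of the hypoxia response; strong numbers were not always called active; many hits fall short of the cut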
# Mtb hypoxia rep growth: also measured in Mtb hypoxia rep; calls as there; growth inhibition, %; measured here: M. tuberculosis growth (absorbance);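 0% = vehicle and 100% = reference antibiotic; read after six days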
# The depositor's hits bear a star; u = inconclusive; x = not tested or not shown.
# The opening six entries as a preview:
mol	RN4220 kill	PrP 5UTR inh	ugtP null kill	BJeLR lethal	Bead autofluor	Mtb hypoxia rep	Mtb hypoxia rep growth
O=C(CCN1N=C(c2ccccc2)CCC1=O)NCC1COc2ccccc2O1 (stereo not given)	2.5	-16	2	1	3678	-13	11
CC1=CN(S(=O)(=O)c2ccc(C)cc2)C[C@@H]2c3ccccc3N(S(=O)(=O)c3ccc(C)cc3)[C@H]12	-2.3	-15	-1	x	4263	-10	-7
O=c1c2cc(Br)ccc2[nH]c(=S)n1Cc1ccccn1	-6.5	-7	2	-11	2037	-2	1
CC(Oc1ccc(F)cc1)C(=O)Nc1ccccc1C(=O)N1CCCCC1 (stereo not given)	3.8	6	1	x	3709	5	5
COc1ccccc1NC(=O)COC(=O)C1CCN(/C=C/C(=O)C(F)(F)F)CC1	1.9	-11	8	14	9146	7	2
CCSc1cc(N2CCCC2)nc(-c2ccc(C)cc2)n1	4.1	-9	3	-5	2207	-3	-4

# The list itself (from the top)
mol	RN4220 kill	PrP 5UTR inh	ugtP null kill	BJeLR lethal	Bead autofluor	Mtb hypoxia rep	Mtb hypoxia rep growth
O=C(CCN1N=C(c2ccccc2)CCC1=O)NCC1COc2ccccc2O1 (stereo not given)	2.5	-16	2	1	3678	-13	11
CC1=CN(S(=O)(=O)c2ccc(C)cc2)C[C@@H]2c3ccccc3N(S(=O)(=O)c3ccc(C)cc3)[C@H]12	-2.3	-15	-1	x	4263	-10	-7
O=c1c2cc(Br)ccc2[nH]c(=S)n1Cc1ccccn1	-6.5	-7	2	-11	2037	-2	1
CC(Oc1ccc(F)cc1)C(=O)Nc1ccccc1C(=O)N1CCCCC1 (stereo not given)	3.8	6	1	x	3709	5	5
COc1ccccc1NC(=O)COC(=O)C1CCN(/C=C/C(=O)C(F)(F)F)CC1	1.9	-11	8	14	9146	7	2
CCSc1cc(N2CCCC2)nc(-c2ccc(C)cc2)n1	4.1	-9	3	-5	2207	-3	-4
O=C(CN1CCN(S(=O)(=O)c2ccccc2)CC1)Nc1ccc2c(c1)OCO2	3.4	-2	4	2	2827	2	6
COc1ccccc1NC(=O)C(NC(=O)c1ccc(C)cc1)c1ccccc1 (stereo not given)	-1.7	-1	-1	15	4181	-14	8
O=C(O)c1cc2c(s1)-c1ccccc1CC2	9.1	15	-12	11	7642	5	-3
O=C(c1cccc(S(=O)(=O)N2CCOCC2)c1)N(Cc1ccco1)Cc1cccs1	-0.7	2	-2	x	5052	3	8
N=C1N(/N=C/c2ccccc2)C(=Nc2ccccc2)C(=S)N1c1ccccc1	x	-42	x	-4	18941*	x	x
COc1ccccc1NC(=O)c1cc2c(CO)cnc(C)c2oc1=Nc1cccc(C(N)=O)c1	15	3	-10	3	3647	8	12
Cc1cc(Cl)c(OCCCNC2CCCC2)c(Br)c1	0.8	-44	2	2	3652	11	3
CC(=O)NC1=NN(C(C)=O)C(c2sccc2C)S1 (stereo not given)	0.4	6	-3	0	4011	16	14
O=C(Nc1nnc(SCc2ccc(F)cc2)s1)c1ccc2c(c1)C(=O)N(c1ccccc1Cl)C2=O	x	-35	x	5	2190	x	x
Cc1c(C2C(CC#N)C2(C)C)c2ccccc2n1C (stereo not given)	6.5	x	4	x	x	14	3
COc1cccc(NC(=O)c2cnc(SC)nc2C)c1	-1.9	-7	-4	-2	3639	-5	6
CCSc1nnc(NC(=O)C(NC(=O)c2ccc(Cl)cc2)C(C)C)s1 (stereo not given)	0.7	-34	-7	-11	2569	9	6
COCCCC1CCN(C(=O)c2cc(COc3ccc(C)nc3)on2)CC1	1.0	1	9	-6	5909	8	5
COc1ccc(C2CC(=O)Nc3n[nH]c(-c4ccccc4)c32)cc1OC (stereo not given)	x	-5	x	-28	3852	x	x
O=C(NNC(=O)c1nc(Cl)ccc1Cl)c1ccc(F)cc1	3.6	-17	-4	0	5587	3	8
O=C(Cn1c(-c2cscn2)nc2ccccc21)Nc1ccccc1F	13	x	7	2	9242	-8	4
O=C(COC(=O)C1=COCCO1)NC(=O)c1ccc(OC(F)F)cc1	7.3	0	2	2	4467	14	8
O=C1OCCC1Sc1ncnc2sccc12 (stereo not given)	0.7	-17	3	-3	4711	x	x
CN(CC(=O)N1CCCCC1)S(=O)(=O)c1cccc2cccnc12	6.2	-8	2	4	15876	x	x

# Some values from above:
# Bead autofluor, COc1ccccc1NC(=O)C(NC(=O)c1ccc(C)cc1)c1ccccc1 (stereo not given) : 4181
# Bead autofluor, CN(CC(=O)N1CCCCC1)S(=O)(=O)c1cccc2cccnc12 : 15876
# PrP 5UTR inh, CC(=O)NC1=NN(C(C)=O)C(c2sccc2C)S1 (stereo not given) : 6

# Gathered by group, the compounds so far containing an NH in an aromatic ring.
mol	RN4220 kill	PrP 5UTR inh	ugtP null kill	BJeLR lethal	Bead autofluor	Mtb hypoxia rep	Mtb hypoxia rep growth
O=c1c2cc(Br)ccc2[nH]c(=S)n1Cc1ccccn1	-6.5	-7	2	-11	2037	-2	1
COc1ccc(C2CC(=O)Nc3n[nH]c(-c4ccccc4)c32)cc1OC (stereo not given)	x	-5	x	-28	3852	x	x

# More results
mol	RN4220 kill	PrP 5UTR inh	ugtP null kill	BJeLR lethal	Bead autofluor	Mtb hypoxia rep	Mtb hypoxia rep growth
CCCNC(=O)C(=O)NN=Cc1cccs1	2.3	x	5	x	x	10	-2
O=C(c1ccccn1)N1CCN(c2cccc(C(F)(F)F)c2)CC1	5.3	-8	4	-6	4218	10	7
O=C(CSc1ccc2nnc(-c3ccccn3)n2n1)N1CCOCC1	2.7	-42	4	0	5968	9	6
NC(=O)Cc1nc(-c2ccc(Br)cc2)cs1	-1.0	-3	4	-6	2388	0	-12
COCCNC(=O)COc1ccccc1C	-1.0	-17	13	12	2447	x	x
C=CCOCCN(CCOCC=C)C1=NS(=O)(=O)c2ccccc21	6.2	-24	-7	-11	4932	13	12
Oc1cccc(C=NN=Cc2cccc(O)c2O)c1O	6.8	x	14	x	x	11	9
Cc1cccc(N(C(=O)c2snc(C(N)=O)c2N)C(C)C(=O)NCC2CCCO2)c1 (stereo not given)	5.9	-13	17	-2	3580	3	5
O=C(NCc1ccccc1)c1c[nH]c2ccccc2c1=O	5.5	-3	-2	0	3637	1	4
CC1CCCCN1C(=O)CCNS(=O)(=O)c1ccc2c(c1)c(=O)n(C)c(=O)n2C (stereo not given)	5.2	-3	-4	6	5318	12	2
O=C(Nc1nonc1-c1ccc(F)cc1)c1ccco1	4.4	5	7	4	4510	10	-9
CCOC(=O)c1cnc2ncnn2c1N	4.8	-16	1	4	5671	-1	5
COc1cccc(NC(=O)CN2CCN(CC(=O)Nc3ccccc3Cl)CC2)c1	5.6	-20	4	-7	4259	3	5
O=C(CCCN1C(=O)/C(=C/c2cccs2)SC1=S)Nc1ccc(C(=O)O)cc1	8.5	-35	6	6	3520	12	11
COc1ccc(Cc2nnc(NC(=O)c3cc(OC)c(OC)c(OC)c3)s2)cc1OC	4.7	-20	4	x	3207	-5	2
Cn1cc(/C=C2\C(=O)NC(=O)N(c3ccccc3)C2=O)c2ccccc21	x	-17	x	6	3407	x	x
CCCCNC(=O)N1CCN(c2ccnc3cc(Cl)ccc23)CC1	5.3	-12	4	1	3665	17	14
O=C(NC1CCCCC1)C(c1ccccn1)N(C(=O)c1csnn1)c1ccccc1 (stereo not given)	-1.0	-21	-2	-1	3894	10	7
CCCOc1ccc(CCC(=O)O)cc1	-0.1	-12	7	15	4171	19	9
CSc1ccc(NC(=O)Nc2ccc(C(=O)NCC(=O)O)cc2)cc1	x	-9	x	-3	2913	x	x
Cc1c(N2C(=O)SC(CC(=O)O)C2=O)c(=O)n(-c2ccccc2)n1C (stereo not given)	1.9	-3	0	x	3379	x	x
COc1ccc(-n2c(COc3ccc(Cl)cc3)nnc2SCc2ccc(C#N)cc2)cc1	-1.1	x	-13	5	7650	8	3
COc1ccc(NC(=O)c2ccc(S(=O)(=O)N3CCCC3)cc2)cc1OC	-3.5	4	-5	x	u	2	15
Cc1ccc(-c2csc(NC(=O)c3ccc(S(=O)(=O)N4CCc5ccccc54)cc3)n2)cc1	0.9	-5	6	-4	5767	-4	3
Cc1cccc(-n2c(N)cc(=O)nc2SCC(=O)Nc2ccccc2)c1	-5.2	-19	0	2	2456	6	7
CS(=O)(=O)N(CC(=O)Nc1cccc(Cl)c1Cl)c1ccccc1	-1.4	-10	-12	-8	6023	-3	15
CCOc1ccc(NC(=O)COC(=O)c2ccc(S(=O)(=O)N3CCOCC3)cc2)cc1	5.7	-22	2	x	x	-7	1
O=C(Nc1cc(S(=O)(=O)N2CCOCC2)ccc1N1CCCC1)C1CC1	12	-12	7	-5	4283	12	14
Fc1cccc2sc(Nc3nnc(-c4ccco4)o3)nc12	50	-55	38	3	4325	-63	5
CC(C)C(NC(=O)CCN1C(=O)c2ccccc2C1=O)c1ccccc1 (stereo not given)	1.7	-20	1	-3	3117	11	-7
C=CCCN(C(C(=O)OC)C(C)C)S(=O)(=O)c1ccccc1Br (stereo not given)	9.1	-1	10	-1	4182	5	8
Cc1cc(C)cc(-n2c(SCC(=O)Nc3cccc(S(=O)(=O)NC4=NCCCCC4)c3)nc3ccccc3c2=O)c1	4.2	-4	4	-4	2404	3	5
Cc1c(NS(=O)(=O)c2cccc(C(=O)N3CCCC3)c2)c(=O)n(-c2ccccc2)n1C	7.2	-10	5	x	3742	11	6
Cc1ccc(C)c(N2CCN(C(=O)CCNC(=O)Cn3ccc4ccccc4c3=O)CC2)c1	3.0	-29	3	7	5349	7	5
O=C(CCC(=O)NN=Cc1ccc(Br)o1)NN=Cc1ccc(Br)o1	2.4	x	8	x	x	10	5
COc1cccc(NC(=O)c2oc3ccc(S(=O)(=O)N4CCOCC4)cc3c2C)c1	0.4	-30	0	-11	3340	2	12
COc1ccc(CNC(=O)C[C@H]2C[C@H](C(=O)N3CCOCC3)[C@@]3(C)c4[nH]c5cc(-c6ccco6)ccc5c4CCN3C2=O)cc1OC	-0.8	-10	-1	x	3053	-4	3
CCN(C(=O)c1ccc2c(=O)n3c(nc2c1)CCCCC3)c1ccc(F)cc1	1.1	5	4	-2	4136	3	2
CCC(C)NC(=O)C1CCN(S(=O)(=O)c2cccnc2)CC1 (stereo not given)	-1.0	-20	8	6	2619	x	x
CCCC(=O)Nc1nnc(S(=O)(=O)N(CC)c2ccccc2)s1	5.5	-3	1	-4	4168	-6	-1
Cc1ccc(C(=O)N/C(=C\c2cn(-c3ccccc3)nc2-c2ccccc2)C(=O)N2CCOCC2)cc1	-1.3	-11	3	3	9272	-8	-11
O=C(Cn1nc2ccccc2n1)N/N=C/c1cc([N+](=O)[O-])ccc1O	x	-13	x	-1	4755	x	x
COc1ccccc1C(=O)N(C)CC(=O)Nc1ccc(N2CCOCC2)cc1	0.3	x	-1	x	x	4	-4
CN(Cc1ccsc1)C(=O)CCc1nnc(Cc2c[nH]c3ccccc23)o1	4.0	-19	-2	6	4660	4	-1
O=C(COC(=O)/C=C/c1ccc([N+](=O)[O-])cc1)NC(c1ccccc1)c1ccccc1	8.7	-15	6	2	2499	1	1
O=C(Cn1nnc2ccccc21)c1ccccc1	9.7	-31	4	7	7310	-7	-3
O=C(COc1ccc(Cl)cc1)NNC(=O)CSc1nncs1	0.6	-17	2	-6	4881	4	-1
NC(=NOC(=O)c1ccc(Cl)c([N+](=O)[O-])c1)c1ccccn1	8.6	x	19	x	x	0	5
COC(=O)c1sc2ccccc2c1NC(=O)c1ccc(S(=O)(=O)N2CCCC(C)C2)cc1 (stereo not given)	7.3	-20	-9	10	2491	-4	5
Cc1cc(N/N=C/c2ccc(Cl)cc2)nc(NCc2ccccc2)n1	x	-14	x	6	2212	x	x
